Source: PubChem (several laboratories)
UUG fidelity = modulators of start codon recognition fidelity in yeast; S. cerevisiae UUG-firefly luciferase reporter, luminescence/redox ratio; activity score, % at 18.7 µM; hit rate 0.13% among 350,000; AID 602363;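 active = replicate mean at a twofold rise or more, about +100% in these data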;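 note: firefly luciferase made from a UUG start codon reports start codon fidelity; reporter light over untreated wells divided by growth signal over untreated wells; some hits fall short of that in this replicate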
HIV Env fusion = inhibitors of HIV Env-mediated cell fusion | HeLa-JRFL Env/CEM21 cell fusion, luciferase | inhibition, % at 12.3 µM | hit rate 1.1% among 360,000 | AID 651610;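 active = mean replicate inhibition score of at least 50 and every replicate individually at or above 50; inconclusive = only one of the two criteria met; inactive = mean below 50 and not all replicates reaching 50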;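 note: 0% = plate neutral controls and 100% = maraviroc near 300 nM; one replicate is shown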
eIF4H FP inh = inhibitors of RNA binding by human eIF4H. inhibition, % at 35 µM. hit rate 0.94% among 290,000. AID 2012. eIF4H fluorescence polarization binding assay;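 active = 50% or more with normal probe brightness, or confirmed in later tests; inconclusive = above 50% with abnormal brightness, or retests that disagree; inactive = below 50% or failed in later tests; about a fifth of its hits are not listed in these tables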;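 note: calls also rest on retests at 20 µM and on dose response follow-up; 0% = protein and probe with vehicle and 100% = probe without protein; strong numbers were not always called active; many hits fall short of the cut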
CSC inhib = blocks cancer stem cells | cancer stem cell-like cells viability, luminescence | inhibition, % at 7.5 µM | hit rate 1.1% among 300,000;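 active = mean at 75% or more and at least half the replicates too; inconclusive = mean and replicates disagree; tested in HMLE shEcad cells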;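 note: 0% = median of negative and 100% = median of positive control wells; the first replicate is given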
PABP FP inh = PABP-poly(A) binding inhibition. P11940. PABP-poly(A) RNA binding, fluorescence polarization. inhibition, % at 35 µM. hit rate 1% among 290,000. AID 2014;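 active = 50% or more with normal probe brightness, or confirmed in later tests; inconclusive = above 50% with abnormal brightness, or retests that disagree; inactive = below 50% or failed in later tests; about a fifth of its hits are not listed in these tables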;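 note: calls also rest on retests at 20 µM and on dose response follow-up; controls were probe without protein and protein plus probe with vehicle; some compounds called inactive have numbers as strong as hits; many hits fall short of the cut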
Target sequence (P11940 whole entry, looked up): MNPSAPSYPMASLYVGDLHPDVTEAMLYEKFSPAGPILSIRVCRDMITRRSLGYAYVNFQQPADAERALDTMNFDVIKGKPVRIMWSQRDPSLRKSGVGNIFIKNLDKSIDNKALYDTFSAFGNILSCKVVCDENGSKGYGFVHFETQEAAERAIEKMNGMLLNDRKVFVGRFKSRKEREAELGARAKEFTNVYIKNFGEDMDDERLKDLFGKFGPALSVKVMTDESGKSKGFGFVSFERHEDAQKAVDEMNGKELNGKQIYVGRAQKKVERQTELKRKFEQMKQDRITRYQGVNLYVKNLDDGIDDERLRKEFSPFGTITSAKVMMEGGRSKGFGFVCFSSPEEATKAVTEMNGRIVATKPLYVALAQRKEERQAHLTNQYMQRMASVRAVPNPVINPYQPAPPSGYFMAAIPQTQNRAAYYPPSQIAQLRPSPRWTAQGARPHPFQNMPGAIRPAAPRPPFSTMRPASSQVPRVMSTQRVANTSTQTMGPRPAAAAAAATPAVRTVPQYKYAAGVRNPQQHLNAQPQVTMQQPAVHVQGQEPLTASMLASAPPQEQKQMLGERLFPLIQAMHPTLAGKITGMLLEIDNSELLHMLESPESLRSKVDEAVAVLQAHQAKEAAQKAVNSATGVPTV
MT1-MMP act inh = inhibitors of human MT1-MMP activation; P50281; HT1080 RFP-PRO-GFP cells, GFP/RFP ratio fluorescence, overnight; percent of plate control window, DMSO zero; GFP/RFP ratio change, % at 20 µM; hit rate 0.061% among 360,000; AID 651647;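 active = GFP/RFP ratio change of at least 30% with cell ATP level not reduced by more than half and red fluorescence within 50% of control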; note: strong numbers were not always called active
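Assay system – RFP-PRO-GFP reporter HT1080 cells · Compound dosing – single dose of 20 µM compound, 1% DMSO final · Incubation – overnight compound exposure at 37 °C · Measure – GFP/RFP fluorescence ratio · Benchmarks – DMSO wells and RFP-L50D-GFP cells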
Rce1 inh = inhibitors of yeast Ras-converting enzyme; calls only; yeast membranes, quenched prenylated peptide cleavage fluorescence; AID 2563; hit rate 0.27% among 290,000; Q03530;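 active = fall in fluorescence gain of 50% or more versus controls, with final raw signal at or below 3038400; inconclusive = same 50% fall but final raw signal above 3038400; inactive = fall in fluorescence gain under 50%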;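 note: plate controls were neutral control wells for no effect and wells lacking membranes for full effect; tested at 10 µM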
Target sequence (Q03530 whole entry, looked up): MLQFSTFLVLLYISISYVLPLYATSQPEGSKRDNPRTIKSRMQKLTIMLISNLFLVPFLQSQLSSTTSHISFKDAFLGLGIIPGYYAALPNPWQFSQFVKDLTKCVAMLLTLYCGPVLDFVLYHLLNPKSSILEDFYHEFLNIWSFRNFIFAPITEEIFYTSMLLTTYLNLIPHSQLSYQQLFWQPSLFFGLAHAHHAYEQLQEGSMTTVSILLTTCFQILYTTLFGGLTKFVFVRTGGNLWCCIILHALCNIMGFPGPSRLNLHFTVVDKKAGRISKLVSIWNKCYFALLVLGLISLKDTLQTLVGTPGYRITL
eIF4H FP inh retest = second read-out of eIF4H FP inh, no call of its own (marks repeat the call); inhibition, %; compound at 20 µM; confirmation average;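 mean of two retest wells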
PABP FP inh retest = second read-out of PABP FP inh, no call of its own (marks repeat the call); inhibition, %; compound at 20 µM; confirmation repeats;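 mean of two retest wells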
MT1-MMP act inh RFP = also measured in MT1-MMP act inh; calls as there; RFP signal change, %; measured here: RFP expression control read;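 0 = vehicle wells; hits needed this value within 50% of zero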
Numbers without * were called inactive; i = inactive; ? = inconclusive; · = not tested or not shown.

SMILES	UUG fidelity	HIV Env fusion	eIF4H FP inh	CSC inhib	PABP FP inh	MT1-MMP act inh	MT1-MMP act inh RFP	Rce1 inh	others
COC(=O)c1cc(NC(=O)c2cc(-c3ccc(C(F)(F)F)cc3)oc2C(F)(F)F)ccc1N1CCOCC1	4	-3	-7	48	-10	-3	-14	i
Cc1ccc(CNC(=O)[C@H]2C[C@@H]2[C@H](NP(=O)(c2ccccc2)c2ccccc2)c2ccccc2)o1	2	-12	-4	-4	4	1	0	i
CCOC(=O)c1nc(NNC(=O)c2ccc([N+](=O)[O-])cc2)sc1C	-46	38	-2	65	-4	0	-16	i
C=CCOC(=O)c1ccc(N2CCN(c3ccccc3)CC2)nc1	7	1	1	-10	1	2	-7	i
Cc1ccc(CN2C(=O)CCC2C(=O)NCc2ccc(F)cc2)cc1 (stereo unspecified)	·	·	-7	-1	-5	-1	1	i
c1ccc(NCc2nc3ccccc3n2CCOc2ccccc2)cc1	·	-14	-15	15	-17	1	-2	i
CNC(=O)NC1CCCCc2sccc21 (stereo unspecified)	-20	4	3	1	1	-1	2	i
O=C(O)[C@@H]1Cc2c([nH]c3ccccc23)C2CCC(=O)N21 (stereo partly specified)	2	10	2	-7	7	-4	10	i
CS(=O)(=O)NNC(=O)Cn1nnc(-c2ccc(OCc3ccccc3Cl)cc2)n1	-13	-13	·	2	·	4	-1	i
Cc1c(Cl)cccc1N1C(=O)CC(Sc2ccccc2N)C1=O (stereo unspecified)	-7	-10	·	·	·	2	0	·
CC1C/C(=N\NC(N)=S)c2cc(Cl)ccc2S1 (stereo unspecified)	-10	1	-2	-10	-8	-4	-16	i
CC1(C)CC(=O)C=C(c2ccc(-c3ccc4[nH]ccc4c3)cc2)C1=O	-65	-335	·	·	·	10	-7	·
O=C(O)Cn1c(SCCOc2ccccc2)nc2ccccc21	-30	-11	-9	-8	-6	-2	-3	·
CCOC(=O)CCC(=O)N1CCOCCOCCN(C(=O)CCC(=O)OCC)CCOCC1	-5	-45	-3	-8	-4	1	6	i
Cc1cccnc1NC(=O)CSc1nnc(CNC(=O)c2cccc([N+](=O)[O-])c2)n1C	-16	14	-8	1	3	1	4	i
COc1ccc([N+](=O)[O-])cc1NS(=O)(=O)Cc1ccccc1	-9	-2	1	-4	-16	2	-1	i
COCCNC(=O)c1ccccc1N(Cc1ccccc1)S(=O)(=O)c1ccccc1	-27	45	·	-9	·	2	1	i
Cc1c(C(=O)OC(C)C)sc(N)c1C(=O)OC(C)C	·	·	4	-15	-12	-2	-2	i
CC1=CC=CC2=NC(=O)CC(C)(C(=O)N(CC(=O)NC3CCCC3)c3ccccc3C)N12 (stereo unspecified)	-13	-17	-2	-1	10	-3	2	?
COc1ccc(CN2CCn3nc(C(=O)NC4CC4)cc3C2=O)cc1	·	2	-7	0	6	-2	-1	i
O=S1(=O)NC2c3ccccc3CC2O1 (stereo unspecified)	-10	9	-2	-18	22	1	5	i
O=C(CC12CC3CC(CC(C3)C1)C2)Nc1ccc2c(c1)COC2=O	-12	2	-8	-10	-4	2	-2	i
CCCCN(CC)S(=O)(=O)N1CCC(C(=O)NCc2ccc(F)cc2)CC1	·	·	-7	-8	-3	7	-4	i
CCNC(=O)Nn1c(-c2ccccc2)nc2ccccc2c1=O	-15	·	1	-2	1	0	5	i
O=C(Cc1ccc(Cl)cc1)OCc1nnc(-c2ccccc2)o1	0	5	-1	·	-5	·	·	i
Cc1cccn2c(=O)c3cc(S(=O)(=O)c4ccc(Br)cc4)c(=N)n(C4CCCCC4)c3nc12	-1	6	-7	12	1	-1	-4	i
COc1ccc(CNC(=O)CSc2nn3c(=O)c(C(C)(C)C)nnc3s2)cc1OC	·	29	-4	8	22	2	-5	i
CCCCC/C=C\C/C=C\C/C=C\CCCCC(=O)O	-15	2	·	-9	·	-3	1	·
O=C(COC(=O)c1ccc(Cl)c(S(=O)(=O)N2CCOCC2)c1)Nc1ccc2[nH]c(=O)[nH]c2c1	-13	1	·	-5	·	0	4	·
CCN(CC(=O)Nc1c(F)cccc1F)C(=O)CSCC(=O)Nc1ccc(OC)cc1	-15	-2	·	-7	·	-4	2	i
COC(=O)[C@]1(C)N[C@H](CN(C)S(=O)(=O)c2ccc(C(C)(C)C)cc2)[C@@H]2C(=O)N(C)C(=O)[C@@H]21	-27	-30	·	·	·	-1	-3	·
O=C(NCc1ccco1)c1cc(-c2ccc(Cl)cc2)on1	23	-85	2	-7	-6	2	0	i
COc1ccc(-n2cnnc2SCC(=O)c2cc(C)n(Cc3cccs3)c2C)cc1	-16	·	-3	17	-6	-2	-5	i
Cc1ccc(CS(=O)Cc2ccc(C(=O)NC3CCCCC3)o2)cc1 (stereo unspecified)	-19	-8	-1	16	6	1	3	i
COc1ccc(C(=O)CC2SC(N)=NC2=O)cc1 (stereo unspecified)	·	4	-3	4	2	2	1	i
CCCS(=O)(=O)N1CCC(C(=O)c2cccc(C(F)(F)F)c2)CC1	-2	·	0	2	24	3	1	i
CCOC(=O)CSc1nc2c(cnn2-c2ccc(F)cc2)c(=O)[nH]1	-3	12	-5	-1	-6	-4	3	i
Cc1ccc(-c2csc(NC(=O)c3cccc(S(=O)(=O)N4CCN(C)CC4)c3)n2)cc1	-13	25	-7	20	3	4	-25	i
O=C(CSc1nc2c(c(=O)n1-c1ccc(F)cc1)SCC2)Nc1ccc2c(c1)OCO2	-11	-2	·	-11	·	5	0	i
COC(=O)Cc1ccc(Oc2ncc(C(F)(F)F)cc2Cl)cc1	·	-8	3	-11	-3	0	2	i
COc1ccc(CCC(=O)OCC(=O)NC2CCCC2)cc1OC	-13	-2	·	·	·	3	1	·
COc1ccc(C)cc1C(=O)CCC(=O)N1CCN(c2ccccc2F)CC1	-8	23	·	·	·	-3	-2	·
CCCn1c(SCC(=O)NCc2ccc(F)cc2)n[nH]c1=O	·	15	-2	-10	-21	3	2	i
O=C(COc1coc(CN2CCc3ccccc3C2)cc1=O)Nc1ccccc1F	-25	4	·	-2	·	0	1	i
O=C(c1ccccc1CCc1ccccc1)N1CCCC1	9	5	-2	-9	-1	-2	1	i
C[n+]1ccc(C(=O)NCc2ccccc2)cc1	5	·	31	-8	64*	0	3	i	eIF4H FP inh retest=2;PABP FP inh retest=93*
CCCCCC(=O)N1C[C@H](O)[C@@H](n2cc(COC(=O)c3ccccc3)nn2)C[C@@H]1c1ccc(C)cc1	7	-1	·	·	·	4	-1	·
CC1(C)CC(=O)C2=C(C1)c1c(ccc3ccccc13)NC2c1cc([N+](=O)[O-])cc([N+](=O)[O-])c1O (stereo unspecified)	·	12	44	58	20	-1	0	i
CSc1cccc(CN2CCN(CCc3ccccc3)C(CCO)C2)c1 (stereo unspecified)	·	-3	5	25	1	-2	0	i
Cc1cccc2cc(C#N)c(N3CCC(O)CC3)nc12	·	-4	3	4	26	-14	6	i
CCCc1cc(C(=O)Nc2ccc(F)cc2F)no1	-4	-21	3	-10	-2	3	4	i
O=C(O)[C@H](Cc1c[nH]c2ccccc12)Nc1ncccc1[N+](=O)[O-]	3	-1	-4	18	4	1	0	i
Cc1ccc(OCC(=O)N(C)CC(=O)Nc2ccc(Cl)c(C(F)(F)F)c2)c([N+](=O)[O-])n1	2	·	·	-7	·	5	1	·
CCOC(=O)c1c(NC(=O)c2cccnc2)sc(C(C)=O)c1C	·	8	-8	-12	-7	2	-1	i
CCc1nn(CCCC(=O)NCc2ccco2)c(=O)c2cc3occc3n12	-7	4	3	-14	4	6	6	i
Cc1cccc(CSCCNC(=O)COc2ccc(Cl)cc2)c1	·	-3	-2	14	-6	-3	0	i
CCCCc1ccc(S(=O)(=O)NCCc2ccncc2)cc1	9	·	-2	24	2	-3	-24	i
Cc1ccccc1N(C(=O)c1snc(C(N)=O)c1N)C(C(=O)NC1CCCCC1)c1ccc(O)cc1 (stereo unspecified)	-9	17	-4	17	6	-12	-9	i
C[C@H](O)[C@@]1(O)CC[C@H]2[C@@H]3CC[C@@H]4C[C@H](O)CC[C@]4(C)[C@H]3CC[C@@]21C	15	·	·	-10	·	-2	3	i
CCOc1ccc(NC(=O)c2ccc(F)c(S(=O)(=O)N3CCN(c4ccccn4)CC3)c2)cc1	·	57*	-3	-10	8	-2	-21	i
The listing continues.
SMILES	UUG fidelity	HIV Env fusion	eIF4H FP inh	CSC inhib	PABP FP inh	MT1-MMP act inh	MT1-MMP act inh RFP	Rce1 inh	others
COCCn1c(NCc2ccccc2)nc2c1c(=O)[nH]c(=O)n2C	-4	·	-5	-7	-5	1	-1	i
COc1ccc(N2C(=O)CC(Nc3cccc([N+](=O)[O-])c3)C2=O)cc1 (stereo unspecified)	·	-4	1	-5	1	-1	2	i
COc1ccc(-c2csc(NC(=O)CCN3C(=O)C4CC=CCC4C3=O)n2)cc1OC (stereo unspecified)	-15	5	·	·	·	1	-7	i
CCc1ccc(C(O)(CNCc2ccccc2)c2ccccc2)cc1 (stereo unspecified)	-12	46	-9	19	-7	3	1	i
CCCCC(=O)Nc1ccc(NC(=S)NC(=O)c2cccs2)cc1OC	·	11	4	·	-5	0	4	i
Cc1[nH]c2ccccc2c1SCCN	-18	-10	·	16	·	-4	1	i
Cc1ccc(NC(=O)CC2Nc3ccccc3NC2=O)cc1Cl (stereo unspecified)	6	·	-5	·	22	-11	-4	·
COC(=O)C1CCN(C2CN(Cc3ccc([N+](=O)[O-])cc3)S(=O)(=O)C2)CC1 (stereo unspecified)	0	15	·	·	·	2	1	·
O=C(NCc1ccccc1)NC(=O)c1ccncc1	·	·	4	-2	-7	-2	3	i
CCOC(=O)c1c(NC(=O)c2ccc(-n3cnnn3)cc2)sc2c1CCCC2	·	·	-1	·	3	-5	2	i
OC(CCN1CCCCC1)(c1ccccc1)C1C[C@@H]2C=C[C@H]1C2 (stereo partly specified)	-15	-4	·	-8	·	-11	-4	·
CC(C)(C)S(=O)(=O)c1cnc(N2CCCCC2)nc1N	·	-11	9	-6	3	1	-2	i
O=C(N/N=C/c1ccc(O)cc1)c1cncc(Br)c1	-11	-12	-8	9	9	3	1	i
Cc1nc(SCc2ccccc2)nc2c1CCC2	-16	-34	-8	3	3	-1	-2	i
CCOc1ccccc1NC(=O)N1CCCN(c2ncccc2C#N)CC1	-2	34	-1	-3	5	3	5	i
O=C(CN1C2CCC1CC(NC(=O)NC1CCCCC1)C2)NC1CC1 (stereo unspecified)	·	-14	-1	-9	12	4	0	i
Cn1ccc2c(N(Cc3ccccc3)Cc3ccccc3)cc3c(c21)C1CCC3C1 (stereo unspecified)	-5	23	·	·	·	-1	1	·
Cc1cccc(-n2nc([N+](=O)[O-])c(=NCc3cccnc3)n2O)c1	2	-44	-7	2	0	3	-3	i
CC1(C(=O)NS(=O)(=O)c2ccc(Br)cc2)CCN1C(=O)C1(c2ccccc2)CC1 (stereo unspecified)	-8	2	·	·	·	-3	3	·
CC(C)c1cccc(C(C)C)c1OCCCCCN1CCOCC1	6	8	·	23	·	2	-1	·
CC1(C)Cc2c(sc(NC(=O)C(=O)NCCCN3CCOCC3)c2C#N)CO1	-19	-19	-6	-12	1	1	-1	i
COc1cc(/C=N\NC(=O)c2nonc2N)c(OC)cc1Br	-9	3	-4	42	2	5	3	i
